Source: PubChem
FGF22 binding: binders of recombinant human FGF22 by thermal shift | Q9HCT0 | SYPRO orange fluorescence; percent of sucrose octasulfate shift, DMSO zero | calls only at 9.99 µM | 340,000 compounds, 1.5% hits | AID 651658;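 active = melting point raised past a set limit in the mean and every replicate; three in four hits are not shown here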
Target sequence (Q9HCT0 whole entry, looked up): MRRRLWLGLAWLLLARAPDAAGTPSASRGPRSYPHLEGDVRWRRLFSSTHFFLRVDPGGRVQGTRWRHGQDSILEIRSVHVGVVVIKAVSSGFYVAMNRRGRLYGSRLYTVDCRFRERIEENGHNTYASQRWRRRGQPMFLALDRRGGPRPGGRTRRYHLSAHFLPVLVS
Calls only; i = inactive. This is a subset; the hit share may differ from the screen's.

The first 3 records (preview)
CCS(=O)(=O)N1CC(=O)N2[C@@H](CO)[C@H](c3ccc(C#CCC(C)C)cc3)[C@@H]2C1
  FGF22 binding: i

C[C@@H]1CN([C@@H](C)CO)S(=O)(=O)c2ccc(-c3ccncc3)cc2O[C@@H]1CN(C)Cc1ccccn1
  FGF22 binding: i

COc1cccc(S(=O)(=O)N2C[C@H](O)COC[C@H]3O[C@H](CC(=O)N4CCN(C)CC4)CC[C@@H]32)c1
  FGF22 binding: i

The whole of this part, repeating the preview:
CCS(=O)(=O)N1CC(=O)N2[C@@H](CO)[C@H](c3ccc(C#CCC(C)C)cc3)[C@@H]2C1
  FGF22 binding: i

C[C@@H]1CN([C@@H](C)CO)S(=O)(=O)c2ccc(-c3ccncc3)cc2O[C@@H]1CN(C)Cc1ccccn1
  FGF22 binding: i

COc1cccc(S(=O)(=O)N2C[C@H](O)COC[C@H]3O[C@H](CC(=O)N4CCN(C)CC4)CC[C@@H]32)c1
  FGF22 binding: i

COc1ccc(S(=O)(=O)N(C)C[C@@H]2Oc3ccc(NS(=O)(=O)c4ccc(F)cc4)cc3CC(=O)N([C@@H](C)CO)C[C@@H]2C)cc1
  FGF22 binding: i

O=C(C[C@@H]1C=C[C@@H](NC(=O)C2CC2)[C@H](CO)O1)NCc1ccncc1
  FGF22 binding: i

C[C@@H]1CN([C@H](C)CO)C(=O)c2cccc(NC(=O)c3cnccn3)c2O[C@@H]1CN(C)C
  FGF22 binding: i

Cc1ccc(S(=O)(=O)N(C)C[C@H]2Oc3ccc(N(C)C)cc3C(=O)N([C@@H](C)CO)C[C@H]2C)cc1
  FGF22 binding: i

O=C(CC(F)(F)F)N1C[C@@H]2[C@H](c3ccccc31)[C@H](CO)N2C(=O)Cc1cccnc1
  FGF22 binding: i

CCCNC(=O)N1C[C@H]2[C@@H](c3ccccc31)[C@@H](CO)N2C(=O)Nc1ccc(F)cc1
  FGF22 binding: i

C[C@H]1CN([C@@H](C)CO)C(=O)Cc2cc(NC(=O)Cc3ccccc3)ccc2O[C@H]1CN(C)C(=O)NC1CCCCC1
  FGF22 binding: i

O=C(C[C@H]1C=C[C@@H](NC(=O)c2ccccc2)[C@@H](CO)O1)NCCc1ccncc1
  FGF22 binding: i

O=C(N[C@@H]1CC[C@@H](CCNS(=O)(=O)c2ccc(F)cc2)O[C@H]1CO)c1cccc(F)c1
  FGF22 binding: i

Cc1ccc(S(=O)(=O)Nc2ccc3c(c2)C(=O)N([C@H](C)CO)C[C@H](C)[C@H](CN(C)C(=O)Nc2c(C)noc2C)OCCCC[C@H](C)O3)cc1
  FGF22 binding: i

C[C@@H]1CN([C@H](C)CO)C(=O)c2cccc(NC(=O)Nc3ccccc3)c2O[C@H]1CN(C)Cc1ccncc1
  FGF22 binding: i

NC(=O)c1c(N)[nH]c(C(=O)c2ccccc2)c1-c1ccc2c(c1)OCO2
  FGF22 binding: i

CCCN1C[C@H](C)[C@@H](OC)CN(C)C(=O)c2ccc(NC(=O)c3cnccn3)cc2OC[C@H]1C
  FGF22 binding: i

C[C@H]1CN([C@@H](C)CO)S(=O)(=O)c2ccc(-c3ccncc3)cc2O[C@@H]1CN(C)C(=O)Nc1ccc(C(F)(F)F)cc1
  FGF22 binding: i

C[C@@H]1CN([C@@H](C)CO)C(=O)c2ccccc2-c2ccccc2CO[C@@H]1CN(C)S(=O)(=O)c1ccc(Cl)cc1
  FGF22 binding: i

C[C@H](CO)N1C[C@H](C)[C@H](CN(C)Cc2ccc(C(F)(F)F)cc2)Oc2ccc(NC(=O)NC3CCCCC3)cc2CC1=O
  FGF22 binding: i

C[C@H]1CCCCO[C@H](CN(C)Cc2ccc(C(F)(F)F)cc2)[C@@H](C)CN([C@@H](C)CO)C(=O)c2cc(NS(=O)(=O)c3ccc(Cl)cc3)ccc2O1
  FGF22 binding: i

CCCC#Cc1cnc2c(c1)C(=O)N([C@@H](C)CO)C[C@H](C)[C@H](CN(C)C(=O)C1CC1)O2
  FGF22 binding: i

CCCc1cn(CC[C@@H]2CC[C@@H](NS(=O)(=O)c3ccc(-c4ccccc4)cc3)[C@H](CO)O2)nn1
  FGF22 binding: i

C[C@H](CO)N1C[C@H](C)[C@@H](CN(C)C(=O)CC2CC2)Oc2cc(-c3cncnc3)ccc2S1(=O)=O
  FGF22 binding: i

CC=Cc1ccc2n(c1=O)C[C@H]1[C@H](CO)[C@@H](C(=O)N3CCc4ccccc4C3)N[C@@H]21 (mixture of isomers)
  FGF22 binding: i

C[C@@H]1CN([C@H](C)CO)C(=O)c2cccc(NC(=O)c3ccncc3)c2O[C@@H]1CN(C)Cc1ccc(-c2ccccc2)cc1
  FGF22 binding: i

COc1ccc(S(=O)(=O)Nc2ccc3c(c2)C(=O)N([C@@H](C)CO)C[C@@H](C)[C@H](CN(C)C(=O)c2ccncc2)OCCCC[C@@H](C)O3)cc1
  FGF22 binding: i

C[C@H](CO)N1C[C@H](C)[C@H](CN(C)Cc2ccc(C(F)(F)F)cc2)Oc2c(NC(=O)Nc3ccc(F)cc3)cccc2C1=O
  FGF22 binding: i

O=C(Cc1ccccc1)N1CC[C@@H]2[C@H]1c1cc(C#Cc3ccccc3)ccc1N[C@@H]2CO
  FGF22 binding: i

C[C@@H]1CN([C@H](C)CO)C(=O)c2cccc(NC(=O)Nc3ccccc3)c2O[C@@H]1CN(C)Cc1ccc2c(c1)OCO2
  FGF22 binding: i

C[C@@H]1CN([C@H](C)CO)S(=O)(=O)c2ccc(-c3ccncc3)cc2O[C@@H]1CN(C)C(=O)CN(C)C
  FGF22 binding: i

Cc1cc(C(=O)Nc2cccc3c2O[C@@H](CN(C)C(=O)Nc2ccc(C(F)(F)F)cc2)[C@@H](C)CN([C@H](C)CO)C3=O)n(C)n1
  FGF22 binding: i

C[C@H]1CN([C@@H](C)CO)C(=O)c2cc(C#CC3(O)CCCC3)cnc2O[C@@H]1CN(C)C(=O)Cc1ccccc1
  FGF22 binding: i

C[C@@H]1CN([C@H](C)CO)C(=O)c2cc(NC(=O)Nc3cccc4ccccc34)ccc2O[C@H]1CN(C)S(=O)(=O)c1ccc(Cl)cc1
  FGF22 binding: i

C[C@H]1CN([C@@H](C)CO)C(=O)c2cc(C#Cc3ccccc3F)cnc2O[C@@H]1CN(C)C(=O)Cc1cccnc1
  FGF22 binding: i

CNC(=O)C[C@@H]1CC[C@H]2[C@@H](COc3ccc(NC(=O)c4cccc(OC)c4)cc3C(=O)N2C)O1
  FGF22 binding: i

O=C(C[C@@H]1C[C@@H]2c3cc(NC(=O)Cc4ccncc4)ccc3O[C@@H]2[C@@H](CO)O1)NCc1cccc(F)c1
  FGF22 binding: i

C[C@@H]1CN([C@@H](C)CO)S(=O)(=O)c2ccc(C#CCC3CCCC3)cc2O[C@H]1CN(C)C(=O)c1ccccn1
  FGF22 binding: i

COc1ccc(S(=O)(=O)Nc2ccc3c(c2)C(=O)N([C@@H](C)CO)C[C@@H](C)[C@@H](CN(C)S(=O)(=O)c2cccs2)OCCCC[C@@H](C)O3)cc1
  FGF22 binding: i

CCCNC(=O)N1[C@H](CO)[C@@H](c2ccccc2C2=CCCCC2)[C@@H]1C#N
  FGF22 binding: i

Cc1noc(C)c1S(=O)(=O)N(C)C[C@@H]1OCCCC[C@H](C)Oc2ccc(NC(=O)c3ccccc3)cc2C(=O)N([C@@H](C)CO)C[C@H]1C
  FGF22 binding: i

C[C@@H]1CCCCO[C@@H](CN(C)S(=O)(=O)c2ccc(F)cc2)[C@@H](C)CN([C@H](C)CO)C(=O)c2cc(NC(=O)Nc3cccc4ccccc34)ccc2O1
  FGF22 binding: i

C/C=C/c1ccc([C@H]2[C@@H](CO)N(Cc3cncnc3)C23CN(C(=O)CC)C3)cc1
  FGF22 binding: i

COc1ccc(CN(C)C[C@H]2Oc3ccc(NC(=O)Nc4ccc(F)cc4)cc3C(=O)N([C@H](C)CO)C[C@H]2C)cc1
  FGF22 binding: i

C[C@@H]1CN([C@@H](C)CO)C(=O)c2c(c3ccccc3n2C)-c2ccccc2CO[C@@H]1CN(C)C(=O)Nc1ccccc1C(F)(F)F
  FGF22 binding: i

CCC(=O)N1[C@H](CO)[C@H]2c3ccccc3N(C(=O)NC(C)C)C[C@H]21
  FGF22 binding: i

CN(C)CC#Cc1ccc([C@H]2[C@@H](CO)N3CCCCN(C(=O)c4ccc5c(c4)OCO5)C[C@H]23)cc1
  FGF22 binding: i

CCS(=O)(=O)Nc1ccc2c(c1)C(=O)N(C)C[C@H](OC)[C@H](C)CN(Cc1ccccn1)[C@@H](C)CO2
  FGF22 binding: i

C[C@@H]1CN([C@@H](C)CO)C(=O)c2cc(-c3ccc(F)cc3)cnc2O[C@@H]1CN(C)C(=O)c1ccccc1F
  FGF22 binding: i

CCC(=O)N1C[C@H](C)[C@@H](OC)CN(C)C(=O)c2cc(NC(=O)NC(C)C)ccc2OC[C@H]1C
  FGF22 binding: i

CO[C@H]1CN(C)C(=O)c2cc(NC(=O)Nc3c(C)noc3C)ccc2OC[C@@H](C)N(CC2CC2)C[C@@H]1C
  FGF22 binding: i

Cc1noc(C)c1NC(=O)N(C)C[C@@H]1OCCCC[C@H](C)Oc2ccc(NC(=O)NC3CCCCC3)cc2C(=O)N([C@H](C)CO)C[C@H]1C
  FGF22 binding: i

O=C(Nc1ccccc1F)N1C[C@H]2[C@@H](c3ccccc31)[C@H](CO)N2C(=O)Cc1ccccc1
  FGF22 binding: i

C[C@H](CO)N1C[C@H](C)[C@@H](CN(C)Cc2ccc(-c3ccccc3)cc2)Oc2ccc(NS(=O)(=O)c3cn(C)cn3)cc2C1=O
  FGF22 binding: i

COc1ccc(S(=O)(=O)N(C)C[C@H]2Oc3ncc(/C=C/c4ccccc4)cc3C(=O)N([C@@H](C)CO)C[C@@H]2C)cc1
  FGF22 binding: i

C[C@H]1CN([C@@H](C)CO)C(=O)c2cccc(NC(=O)Nc3ccc4c(c3)OCO4)c2O[C@@H]1CN(C)Cc1ccc(C(=O)Nc2ccccc2N)cc1
  FGF22 binding: i

C[C@@H]1CN([C@H](C)CO)C(=O)Cc2cc(NC(=O)Cn3cnnn3)ccc2O[C@@H]1CN(C)S(=O)(=O)c1cn(C)cn1
  FGF22 binding: i

CCCNC(=O)N[C@H]1CC[C@@H](CC(=O)N2CCN(C)CC2)O[C@@H]1CO
  FGF22 binding: i

COc1ccc(CN(C)C[C@H]2OCCCC[C@@H](C)Oc3ccc(NC(=O)Nc4ccc(C(F)(F)F)cc4)cc3C(=O)N([C@@H](C)CO)C[C@H]2C)cc1
  FGF22 binding: i

CO[C@H](CN(C)S(=O)(=O)c1ccc(Cl)cc1)[C@@H](C)CN(Cc1ccccc1Cl)[C@@H](C)CO
  FGF22 binding: i

C[C@H](CO)N1C[C@H](C)[C@H](CN(C)C(=O)C2CCCCC2)OCCCC[C@H](C)Oc2ccc(NC(=O)Nc3ccc4c(c3)OCO4)cc2C1=O
  FGF22 binding: i

O=C(C[C@@H]1CC[C@H](NC(=O)c2ccccc2)[C@H](CO)O1)Nc1ccc(-c2ccccc2)cc1
  FGF22 binding: i

CO[C@@H]1CN(C)C(=O)c2cc(NC(=O)C3CC3)ccc2OC[C@H](C)N(C(=O)c2ccncc2)C[C@H]1C
  FGF22 binding: i

COc1ccc(CN(C)C[C@H]2OCCCC[C@H](C)Oc3ccc(NC(=O)Nc4ccc(OC)cc4)cc3C(=O)N([C@H](C)CO)C[C@H]2C)cc1
  FGF22 binding: i

Cc1noc(C)c1NC(=O)Nc1ccc2c(c1)C(=O)N([C@H](C)CO)C[C@@H](C)[C@@H](CN(C)S(=O)(=O)c1cn(C)cn1)O2
  FGF22 binding: i

C[C@H]1CCCCO[C@H](CN(C)C(=O)C2CCCCC2)[C@@H](C)CN([C@@H](C)CO)C(=O)c2cc(NC(=O)CCC(F)(F)F)ccc2O1
  FGF22 binding: i

O=C(c1cccnc1)N1C[C@H]2[C@@H](c3ccccc31)[C@@H](CO)N2Cc1ccc2c(c1)OCO2
  FGF22 binding: i

COc1ccc(NC(=O)N(C)C[C@H]2Oc3ccc(NC(=O)Nc4ccc(C(F)(F)F)cc4)cc3CC(=O)N([C@H](C)CO)C[C@@H]2C)cc1
  FGF22 binding: i

C[C@H](CO)N1C[C@H](C)[C@@H](CN(C)Cc2ccc(C(F)(F)F)cc2)Oc2ccc(NS(=O)(=O)c3cn(C)cn3)cc2C1=O
  FGF22 binding: i

CCCNC(=O)N1[C@@H]2CN(C(=O)Nc3ccccc3)c3ccccc3[C@@H]2[C@@H]1CO
  FGF22 binding: i

COCC(=O)N1CC2(CCN(Cc3ccccc3Cl)CC2)c2c([nH]c3cc(OC)ccc23)[C@@H]1CO
  FGF22 binding: i

O=C(C[C@H]1CC[C@@H]2[C@H](COC[C@@H](O)CN2Cc2ccc(F)cc2)O1)NCCc1ccccc1
  FGF22 binding: i

C[C@H](CO)N1C[C@H](C)[C@@H](CN(C)C(=O)Nc2ccc3c(c2)OCO3)Oc2ccc(NC(=O)C3CCCCC3)cc2CC1=O
  FGF22 binding: i

COc1ccccc1NC(=O)N1CCCCN2[C@H](CO)[C@H](c3ccc(C#CC4CCCC4)cc3)[C@H]2C1
  FGF22 binding: i

C[C@@H]1CN([C@@H](C)CO)C(=O)c2cc(/C=C/c3ccccc3)cnc2O[C@H]1CN(C)Cc1ccc2c(c1)OCO2
  FGF22 binding: i

C[C@@H]1CN([C@@H](C)CO)S(=O)(=O)c2ccc(C3=CCCCC3)cc2O[C@@H]1CN(C)Cc1cncnc1
  FGF22 binding: i

CN1CCN(C(=O)C[C@H]2CC[C@H]3[C@@H](COC[C@@H](O)CN3C(=O)Nc3ccc(Cl)cc3)O2)CC1
  FGF22 binding: i

COCC(=O)N1CC2(C1)[C@H](c1ccc(-c3ccccc3)cc1)[C@@H](CO)N2C(C)=O
  FGF22 binding: i

CCNC(=O)Nc1ccc2c(c1)C(=O)N(C)[C@H]1CC[C@@H](CC(=O)NC3CCCCC3)O[C@@H]1CO2
  FGF22 binding: i

CCCCCCCCN1C(=O)[C@@H](CC(=O)N2CCCC2)C[C@@]2(C(=O)OC)C1=C[C@H](C1CCCC1)O[C@@H]2C
  FGF22 binding: i

O=C(C[C@H]1C=C[C@@H](NC(=O)c2ccccn2)[C@@H](CO)O1)NCc1cccc(F)c1
  FGF22 binding: i

CCCN(C)C[C@H]1OCCCC[C@@H](C)Oc2ccc(N(C)C)cc2C(=O)N([C@H](C)CO)C[C@@H]1C
  FGF22 binding: i

N#C[C@@H]1[C@@H](c2ccc(-c3ccccc3F)cc2)[C@H](CO)N1C(=O)C1CCOCC1
  FGF22 binding: i
